# A488 autofl – A488 region autofluorescence. max dye equivalency, M. compound autofluorescence, A488 spectral region, dye equivalency; stronger effect = higher value. actives 0.1% (n = 59,000). AID 591; active = above 10 nM dye equivalent; inconclusive = 1 to 10 nM; inactive = 1 nM or less; about half of its hits are not listed in these tables;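 also: highest value over a series up to 38 µM; compound alone in buffer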
#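 Readout is A488 dye-equivalent concentration, calibrated by a per-plate six-point Alexa 488 series. Compounds in 100 mM Tris buffer pH 8.0 were incubated 15 min at room temperature. Plates were imaged using 480 nm excitation/540 nm emission filters.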
# Resorufin fluor – compound fluoresces in the resorufin spectral region. actives 0.04% (n = 59,000). Compound fluorescence, resorufin region 547/598 nm, buffer; stronger effect = higher value. max dye-equivalent concentration, M; active = above 10 nM dye equivalent; inconclusive = 1 to 10 nM; inactive = 1 nM or less; a few of its hits are not listed in these tables; also: highest value over a series up to 38 µM
#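 Read-out: intrinsic compound fluorescence at ex 547/em 598 nm after 15 min at RT in pH 8.0 Tris (100 mM). Values expressed as resorufin-equivalent concentration from per-plate standard series.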
# TSHR agonist – agonists of human thyroid stimulating hormone receptor. P16473. HEK293-CNG-TSHR cells (CNG channel as cAMP sensor), membrane potential dye, cAMP. Potency, µM (top dose mostly 57.1 µM), for inactives: top-dose activation, most hits filed as activators. actives 0.48% (n = 73,000). AID 926; active = well fitted activation curve of enough size with the parental cells flat; inconclusive = any curve in the parental cells; inactive = parental cells flat and receptor cells flat or falling; also: potency is read from the fitted curve at half-maximal effect; % of control where 0% means no effect; weak receptor curves with flat parental cells got no call and are not listed
# Target sequence (P16473 whole entry, looked up): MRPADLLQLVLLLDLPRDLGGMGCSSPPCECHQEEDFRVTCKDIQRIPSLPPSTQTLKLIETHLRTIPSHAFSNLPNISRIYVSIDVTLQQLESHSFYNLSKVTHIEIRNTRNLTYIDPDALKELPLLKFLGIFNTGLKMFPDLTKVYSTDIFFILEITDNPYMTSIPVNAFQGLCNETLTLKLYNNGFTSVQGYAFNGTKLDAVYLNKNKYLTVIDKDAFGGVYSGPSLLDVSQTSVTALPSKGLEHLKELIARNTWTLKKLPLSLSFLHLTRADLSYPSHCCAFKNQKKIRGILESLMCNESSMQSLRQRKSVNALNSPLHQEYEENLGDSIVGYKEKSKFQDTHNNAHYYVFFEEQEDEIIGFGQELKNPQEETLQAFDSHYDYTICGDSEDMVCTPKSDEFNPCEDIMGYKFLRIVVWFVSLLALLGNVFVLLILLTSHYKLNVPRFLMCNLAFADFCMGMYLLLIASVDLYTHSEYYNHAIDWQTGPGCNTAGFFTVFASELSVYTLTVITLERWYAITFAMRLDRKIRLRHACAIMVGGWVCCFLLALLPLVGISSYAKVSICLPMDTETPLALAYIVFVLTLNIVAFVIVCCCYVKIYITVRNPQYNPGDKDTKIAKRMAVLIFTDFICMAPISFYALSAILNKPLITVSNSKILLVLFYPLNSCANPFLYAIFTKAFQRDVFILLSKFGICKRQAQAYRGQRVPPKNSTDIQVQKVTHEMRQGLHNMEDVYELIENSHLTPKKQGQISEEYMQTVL
#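 HEK 293 cells stably expressing TSHR and a cAMP-gated CNG channel; parental CNG-only cells as counterscreen. Cells preloaded 60 min with membrane potential dye plus 100 uM RO 20-1724, then compound 30 min; fluorescence read at 590 nm.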
# AID923 – qHTS Assay for Allosteric/Competitive Inhibitors of Caspase-1: Spectroscopic Profiling in AFC Spectral Region; AID 923, 2007; compound fluorescence, AFC spectral region (405/520 nm); almost no hit is shown here; actives 1.1% (n = 75,000); Potency, µM (highest dose often 57.5 µM), for the others: at the top dose fluorescence increase, usual class: activators; active = well fitted activation curve with a large enough effect; inconclusive = small, poorly fitted or top-dose-only effect;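 also: potency is read from the fitted curve at half-maximal effect; 0% is about no effect; scaled to a free AFC standard on each plate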
#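 Titrations up to 57 uM read every 20 sec for 3 min (405/520 nm) with 50 nM caspase 1 and 5 uM Ac-WEHD-AFC, pH 7.5 HEPES buffer. Fluorescence-vs-time intercept gave baseline, scaled against on-plate AFC standard.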
# A647 autofl – compound fluoresces in the A647 spectral region | 59,000 tested, under 10 active | Compound fluorescence, A647 channel (570/671 nm), Tris buffer | max dye-equivalent concentration, M; active means above 1 µM dye equivalent; inconclusive means 0.1 to 1 µM; inactive means 0.1 µM or less;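 also: values scaled relative to a standard on each plate; highest value over a series up to 38 µM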
#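 Compounds pinned into 100 mM Tris pH 8.0, 15 min at room temperature, then read with 570 nm excitation/671 nm emission filters. Fluorescence normalized to an on-plate six-point Alexa 647 standard curve, giving dye-equivalent concentration per compound concentration.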
# * hit, by the source's call; i = inactive; u = inconclusive; x = not tested or not shown; & = joins results of further samples; [ ] = remark or other dose.
# The opening three entries, ahead of the listing:
Compound,A488 autofl,Resorufin fluor,TSHR agonist,AID923,A647 autofl
CCOC(=O)c1c(NC(=O)c2noc3c2CCCC3)sc(C)c1C,i,i,3.2%,-1.2%,1.05e-08
CNC(=O)CN(c1cc(C)ccc1C)S(C)(=O)=O,i,i,2.4%,-0.3%,3.2e-09
CN1CCC2(CC1)CCN(C(=O)c1cccc(F)c1)CC2,i,i,8.0%,3.2%,1.08e-08

# Main list, from the first entry:
Compound,A488 autofl,Resorufin fluor,TSHR agonist,AID923,A647 autofl
CCOC(=O)c1c(NC(=O)c2noc3c2CCCC3)sc(C)c1C,i,i,3.2%,-1.2%,1.05e-08
CNC(=O)CN(c1cc(C)ccc1C)S(C)(=O)=O,i,i,2.4%,-0.3%,3.2e-09
CN1CCC2(CC1)CCN(C(=O)c1cccc(F)c1)CC2,i,i,8.0%,3.2%,1.08e-08
CC(=O)OC(C)(CCC(C)(OC(C)=O)C(C)=O)C(C)=O (configuration not stated),x,x,-3.6%,2.3%,x
CCCCCCN(C(=O)CCCCCN1C(=O)NC(c2ccc(-c3ccccc3)cc2)C(C(=O)OCc2ccccc2)=C1C)C(C(=O)NCCCC)c1ccc(O)c(C(=O)OC)c1 (configuration not stated),x,x,-0.9%,-1.9%,x
Cc1cc(C)c(C#N)c(SCCS(=O)(=O)Cc2ccccc2)n1,i,i,x,0.4%,2.91e-08
O=C(CNC(=O)C12CC3CC(CC(C3)C1)C2)NC1=NCCS1,i,i,4.4%,4.6%,3.5e-09
COC(=O)c1ccc(C(NC(=O)OCc2ccccc2)/C(C)=C/[C@@H](C)C(=O)NCCc2c[nH]c3ccc(OC)cc23)cc1 (some centres not stated),x,x,20.1%,1.4%,x
Cc1cc2ncn(CC(O)COC3CCCCC3)c2cc1C (configuration not stated),x,x,15.9%,-0.5%,x
CC(C)(C)c1cc(CN2CCN(CCO)CC2)cc(C(C)(C)C)c1O,i,i,u,-1.6%,6.4e-09
C=CCNC(=O)CCNS(=O)(=O)c1ccc(Br)cc1,i,i,1.8%,1.3%,1e-09
CCOC(=O)CCn1c(CC(=O)OCC)nc2ccccc21,i,i,8.9%,0.7%,7e-09
O=C(OC1CCCCC1=O)c1cc(=O)c2ccccc2o1 (configuration not stated),i,i,1.3%,0.1%,5.3e-09
CN1CCN(c2ccccc2NC(=O)C(Cc2ccccc2)n2cccc2)CC1 (configuration not stated),x,x,18.0%,3.7%,x
O=C(NCCN1CCOCC1)c1ccc(CS(=O)(=O)Cc2ccccc2F)o1,i,i,3.1%,1.4%,1.06e-08
COc1ccc(-n2c(Cc3cccn3C)nnc2SCC(=O)NCC2CCCO2)cc1 (configuration not stated),x,x,-0.3%,4.1%,x
CC(C)=CCC/C(C)=C/CO/N=C1/C[C@@H](O)[C@@H](O)[C@@H]2[C@@H]3C(=O)N(Cc4ccccc4)C(=O)[C@H]3CC[C@@H]12,x,x,-0.4%[11.4 µM],-0.2%[11.5 µM],x
Cc1ccc(S(=O)(=O)NCc2cn3c(C)csc3n2)cc1,i,i,0.3%[11.4 µM],1.3%,2.55e-08
O=C(NO)c1ccc(C(=O)N(C2CCCCC2)C2CCCCC2)cc1,x,x,28.6%,0.1%,x
CN1CCN(C2=C(Cl)C(=O)N(Cc3ccccc3)C2=O)CC1,i,i,-1.3%,4.2%,4.24e-08
O=C(Nc1cccs1)Nc1ccccc1Cl,i,i,-18.8%,1.8%,3.58e-08
COc1cccc(-c2cc(N)nn2C(=O)Nc2ccc(Cl)cc2)c1,x,x,-5.0%,-3.8%,x
CSc1nnc(Cc2ccc3c(c2)OCO3)o1,i,i,3.6%,-0.8%,1e-09
CCN(CC)c1ccc(NC(=O)c2ccccc2F)cc1,i,i,8.6%,-0.8%,4.6e-09
CN1C(=O)NC(NC(=O)c2ccco2)(C(F)(F)F)C1=O (configuration not stated),i,i,x,x,1e-09
O=c1c2ccccc2c(C=NC2CCS(=O)(=O)C2)c(O)n1-c1ccccc1 (configuration not stated),i,i,-4.9%,-1.2%,2.4e-08
Cc1cccc(-c2noc(CN(C(=O)c3ccc4c(c3)OCO4)C(C)C)n2)c1,i,i,u,-2.9%,4.17e-08
Cc1c(C(=O)N2CCN(C(=O)c3ccco3)CC2)sc2nc(-c3ccc(F)cc3)cn12,x,x,3.9%,-1.2%,x
Cc1cccc(CN2CCN([C@@H](c3ccccc3)c3ccc(Cl)cc3)CC2)c1,i,i,-11.2%[25.6 µM],-1.7%[25.7 µM],1.84e-08
CCCCC(=O)N(c1ccc(OCC)cc1)C1C=CS(=O)(=O)C1 (configuration not stated),i,i,-1.0%[11.4 µM],0.6%,2.1e-09

# The final two compounds of the section before are carried over, then new ones follow:
Compound,A488 autofl,Resorufin fluor,TSHR agonist,AID923,A647 autofl
Cc1cccc(CN2CCN([C@@H](c3ccccc3)c3ccc(Cl)cc3)CC2)c1,i,i,-11.2%[25.6 µM],-1.7%[25.7 µM],1.84e-08
CCCCC(=O)N(c1ccc(OCC)cc1)C1C=CS(=O)(=O)C1 (configuration not stated),i,i,-1.0%[11.4 µM],0.6%,2.1e-09
Cc1ccc(F)cc1NC(=O)C1CCCN(c2ncccn2)C1 (configuration not stated),i,i,5.9%,0.6%,1e-09
N#Cc1cccc(-c2ccc3ncnc(NCCN4CCOCC4)c3c2)c1,i,i,8.2%,2.9%,1e-09
CCNc1ccc(C(=O)OCC)cc1NC(=O)c1cccc(N(C)C)c1,i,i,16.2%,-1.2%,4.3e-09
CCCc1nc2c3cnn(-c4cccc(Cl)c4)c3ncn2n1,i,i,5.4%,6.4%,1e-09
Cc1nc2ccc(C(=O)N3CCN(c4ccccn4)CC3)cc2s1,i,i,1.2%,-2.6%,1e-09
Cc1ccc(C)c(Nc2ncnc3nc[nH]c23)c1,x,x,18.5%,-3.4%,x
COC(=O)c1cc2sccc2n1CC(=O)Nc1cccc(SC)c1,i,i,u,-1.4%,7.2e-09
Cc1cc(N2CCC(C)CC2)n2nc(C)c(-c3ccccc3)c2n1,i,i,-3.8%[11.4 µM],0.3%,2.7e-09
COC(=O)C(NC(=O)c1ccccc1)c1ccccc1 (configuration not stated),x,x,-2.4%,-3.3%,x
CSc1ccc2c(c1)N(CC[C@H]1CCCCN1C)c1ccccc1S2,i,i,-19.2%[25.6 µM],-3.7%[25.7 µM],4.21e-08&1e-09
N#CCSc1nc2cc(C(=O)N3CCCC3)ccc2c(=O)n1Cc1ccccc1,i,i,10.1%,0.5%,1e-09
c1csc(Cc2nn3c(-c4n[nH]c5c4CCC5)nnc3s2)c1,i,i,14.4%,0.5%,6.9e-09
O=[N+]([O-])c1ccc2ncccc2c1CCc1c([N+](=O)[O-])ccc2ncccc12,i,i,u,-1.6%[11.5 µM],1e-09
CC(=O)c1cccc(NC(=O)c2cc3nc(C)cc(C)n3n2)c1,i,i,u,0.0%,1e-09
Cc1ccccc1Nc1nc(N)nc(CSc2nc3ccccc3c(=O)n2CCCO)n1,i,i,-0.4%,1.4%,1.18e-08
O=C(CSCCO)N1CCc2ccccc21,i,i,-5.4%,-0.9%,8.1e-09
CCCCCCC(=O)N1CCC(c2nc3c(nnn3Cc3ccccc3Cl)c(=O)[nH]2)CC1,i,i,u,-0.7%,1.69e-08
CC(C)(C)S(=O)(=O)c1c(C(=O)O)cccc1C(=O)O,i,i,0.2%,1.8%,4.56e-08
Cc1nc2c(C(=O)N3CCCC3)c[nH]n2c(=O)c1Cc1ccc(F)cc1Cl,i,i,-3.2%,2.4%,1.4e-09
CC(C)c1[nH]nc2c1C(Cc1ccccc1)C(C#N)=C(N)O2 (configuration not stated),i,i,0.0%,1.4%,4.5e-09
c1ccc([C@H]2NCCc3c2[nH]c2ccccc32)cc1,x,x,2.3%[11.4 µM],-0.6%[11.5 µM],x
O=C1Nc2ccccc2C(O)(C(=O)NCc2ccco2)N1c1ccc(Cl)cc1 (configuration not stated),i,i,u,0.2%,1e-09
COC(=O)[C@@]1(Cc2ccccc2)[C@H]2c3cc(C(=O)N4CCCC4)n(CCSCCO)c3C[C@H]2CN1C(=O)c1ccccc1,x,x,u,-0.5%,x
CC1=C(C#N)C(NC(=O)C2CC2)(C(F)(F)F)C(=O)N1 (configuration not stated),i,i,-1.9%,-0.9%,2.15e-08
CC(C)(C)c1csc(NC(=O)Cn2cnc3ccccc3c2=O)n1,i,i,-0.4%,-1.0%,1.21e-08
NS(=O)(=O)c1cc(Br)c(N=Nc2ccc(O)c3ncccc23)c(Br)c1,i,i,1.1%[11.4 µM],-1.7%[11.5 µM],1e-09
COc1ccc(OC)c(S(=O)(=O)N2CCC(C(=O)NCC3CCCO3)CC2)c1 (configuration not stated),i,i,x,-2.0%,2.65e-08
CCOC(=O)c1nc2nc(C)c(Cl)c(=O)n2[nH]1,i,i,x,x,1.67e-08
CCn1c(SCC(=O)N(Cc2ccccc2)C2CCS(=O)(=O)C2)nc2ccccc2c1=O (configuration not stated),i,i,13.1%,-1.3%,3.2e-08
COCCNC(=O)c1ccc(-n2c(=O)c(=O)[nH]c3ccccc32)cc1,x,x,-0.4%,-0.8%,x
CC(=O)c1c(C)nc2cc(Cl)ccc2c1N,i,i,4.7%,-1.8%,1e-09
O=S(=O)(NCC1CCCO1)c1cc(Cl)ccc1Br (configuration not stated),x,x,0.4%,2.0%,x
Cc1cc(NC(=O)c2ccc3c(c2)C(=O)N(Cc2cccnc2)C3=O)no1,i,i,-7.0%,-1.1%,1.35e-08
O=C(c1ccc2c(c1)N(Cc1ccccc1)C(=O)CS2)N1CCOCC1,i,i,5.7%,-1.4%,2.54e-08
CCc1nc(SCC(=O)NCC2CCCO2)c2oc3ccccc3c2n1 (configuration not stated),i,i,10.3%,2.5%,1.97e-08
CC1CCN(C(=O)c2cc(-c3ccc(Cl)c(Cl)c3)on2)CC1,i,i,u,-0.2%,4e-09
CCOC(=O)c1c(C)[nH]c(C(=O)C(C)OC(=O)c2cccc(OCc3c(C)noc3C)c2)c1C (configuration not stated),i,i,4.8%,-0.2%,2.74e-08
OC[C@@H]1O[C@@H](n2cnc3c(NCc4ccco4)ncnc32)[C@H](O)[C@H]1O,i,i,19.4%,x,1e-09
COc1cccc(OCCCN2CCCCC2)c1,x,x,-0.8%,0.6%,x
CC(c1ccccc1)n1c(-c2ccncc2)n[nH]c1=S (configuration not stated),i,i,-6.5%,-0.1%,1e-09
CCCc1nc(NCc2ccncc2)c2nnn(Cc3ccccc3F)c2n1,i,i,u,-2.2%,6.45e-08
O=C(CN1CCC(n2nnc3cc(F)ccc32)CC1)NC1CC1,i,i,-2.4%,0.4%,3.08e-08
Cc1nn(C)cc1CNC(=O)c1ccc(Br)o1,i,i,x,x,5.63e-08
O=C(/C=C/c1ccccc1)N1CCCC1CO (configuration not stated),x,x,u,1.1%[11.5 µM],x
Cc1cc(S(=O)(=O)n2cnc3ccccc32)c(C)cc1Cl,i,i,18.4%,-0.6%,3.12e-08
Cc1cc(N2CCN(C3CCCCC3)CC2)n2nc(C)nc2n1,x,x,8.5%,-3.5%,x
Cc1c(C#N)c2ncn(Cc3ccccc3)c(=O)c2n1-c1ccccc1,x,x,3.1%,-0.5%,x
Cc1ccc(C)c(-n2nnnc2SCC(=O)NCCC2=CCCCC2)c1,i,i,u,1.0%,3.72e-08

# Assay outcomes: PubChem, National Center for Advancing Translational Sciences (NCATS)

# The list is partial. The share of hits here may be higher or lower than overall.
